# Polio RdRp inh: poliovirus RdRp elongation inhibitors, primary screen, biochemical, fluorescence polarization, total intensity; poliovirus polymerase elongation; active compounds read low; Genome polyprotein (Poliovirus type 1 (strain Mahoney)), P03300; hit rate 0.66% among 150,000; % elongation, % (compound at 16.7 µg/mL); in the data active = % elongation below about 90%; also: some results filed as inactive read as strong as hits
# Target sequence (P03300 1749-2209 limits assumed): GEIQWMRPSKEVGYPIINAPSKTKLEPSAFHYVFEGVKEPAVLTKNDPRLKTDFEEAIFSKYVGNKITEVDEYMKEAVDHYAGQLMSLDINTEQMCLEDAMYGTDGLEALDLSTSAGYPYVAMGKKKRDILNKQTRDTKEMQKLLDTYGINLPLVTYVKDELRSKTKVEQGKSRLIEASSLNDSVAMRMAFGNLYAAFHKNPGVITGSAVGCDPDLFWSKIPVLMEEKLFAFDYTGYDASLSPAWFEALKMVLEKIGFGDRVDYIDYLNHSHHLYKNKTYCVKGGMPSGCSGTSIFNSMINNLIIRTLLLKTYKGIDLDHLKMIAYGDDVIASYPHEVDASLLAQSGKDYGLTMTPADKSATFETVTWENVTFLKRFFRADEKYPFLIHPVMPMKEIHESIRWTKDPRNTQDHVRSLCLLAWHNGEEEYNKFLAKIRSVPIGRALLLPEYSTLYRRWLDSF
# Polio RdRp inh intensity: further read-out of Polio RdRp inh, marked with its call; % elongation; measured here: total intensity read-out; formula for this scale not given here;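 total fluorescence in place of polarization; lower means less elongation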
# Numbers without * were called inactive. An excerpt (hit frequency here may not be typical).
SMILES,Polio RdRp inh,Polio RdRp inh intensity
CCn1c(CN2CCCCC2)nc2cc(NC(=O)COc3cc(C)ccc3C(C)C)ccc21,102,108
CCOC(=O)N1CCc2c(sc3c2c(=O)n(CCc2ccccc2)c(=O)n3Cc2ccc(C)cc2C)C1,104,111
Cc1ccc(Nc2c(-c3cccnc3)nc3ccc(Br)cn23)cc1,108,107
COc1cc(NC(=O)Cn2nc3c(cc2=O)CC(C)CC3)cc(OC)c1OC (stereo not given),105,109
Cc1ccc(-c2cn3c(n2)sc2cc(C(=O)NCCC4=CCCCC4)ccc23)cc1,101,105
Cc1ccc(CNC(=O)c2ccc(CSCc3cccc(C)c3)o2)cc1,107,100
COc1ccc(N(C)S(=O)(=O)c2ccc3c(c2)n(C)c(=O)c(=O)n3C)cc1,100,102
Cc1nn(CC(=O)NCc2cccc(F)c2)c(=O)c2c(C)n(-c3ccc(Cl)cc3)nc12,110,118
CCc1cc2c(cc3c(=O)n(CC(=O)NCCc4ccc(OC)cc4OC)nc(CC)n32)s1,103,108
O=C(NC(=O)c1cccc(F)c1)Nc1ccc(-c2cc(C(F)(F)F)nn2-c2ccccc2)cc1,98,95
COc1ccc(Cc2c(C)nn(-c3nc(C)c(C(=O)Nc4cccc(C(C)=O)c4)s3)c2C)cc1,98,103
Cc1ccc(N2CC(C(=O)NCc3nnnn3-c3ccc(C)c(C)c3)CC2=O)cc1 (stereo not given),109,117
COc1ccc(C(=O)c2oc3ccccc3c2NC(=O)COc2c(C)cc(C)cc2C)cc1,109,112
Cc1c(Cl)cccc1N1C(N)=C(C#N)C(c2cc(CN3CCOCC3)cs2)C2=C1CCCC2=O (stereo not given),111,115
O=C(CN1CCN(S(=O)(=O)c2cc(Cl)ccc2Cl)CC1)Nc1cccc(F)c1,100,106
CCS(=O)(=O)N1CCc2cc(C(=O)Nc3cccc(C(C)=O)c3)ccc21,111,117
COc1ccc(-c2nc(SCC(=O)NCc3nc4ccccc4n3C)n3[nH]c(=O)cc3n2)cc1,110,111
Cc1ccccc1C1CC(=O)Nc2ccc3ccccc3c21 (stereo not given),112,113
Cc1ccc(Nc2c(-c3ccccc3O)nc3cc(C)ccn23)cc1,106,108
CCN(C(=O)Cn1c(C(=O)OC)cc2sc(Cl)cc21)c1cccc(C)c1,106,112
Cc1ccc(NC2=C(c3ccc(C(F)(F)F)cc3)C(=O)c3ccccc32)cc1C,81*,80*
C=Cc1ccc(Cn2c(C(=O)O)c(CNCc3cccs3)c3ccc(C)cc32)cc1,111,116
Cc1ccc2onc(CC(=O)N(C)c3ccccc3)c2c1,107,113
Cc1ccc(C)c(Oc2nc3c(c(=O)n(C)c(=O)n3C)n2Cc2ccccc2)c1,112,116
Cc1ccc(Nc2nc(C)nc(N)c2S(=O)(=O)c2ccccc2)cc1,106,108
CCc1c(C)nc2nncn2c1Nc1ccc(C)c(F)c1,106,102
COc1ccc(-n2ncc(C(=O)N3CCOCC3)c2C2CCN(C(=O)OC(C)(C)C)CC2)cc1,102,105
Cc1ccc2occ(CC(=O)Nc3nnc(C(C)C)s3)c2c1,114,115
CCc1nc2ccc(C(=O)NCCc3ccc(OC)c(OC)c3)cc2nc1CC,105,102
COc1ccccc1N1CCN(C(c2ccc(Cl)cc2)c2nnc(-c3cccc(F)c3)o2)CC1 (stereo not given),108,110
Oc1ccc(-c2nc3ccccn3c2Nc2ccc3c(c2)OCCO3)cc1,107,110
CCCCOc1cccc(NC(=O)CSc2nnc(C)s2)c1,106,106
Cc1cc(C)c2c(=O)cc(C(=O)Nc3sc4c(c3C#N)CCCC4)oc2c1,102,114
Cc1ccc(C2c3[nH]c4ccccc4c3CCN2C(=O)CSCc2ccc(F)cc2)cc1 (stereo not given),106,107
Cc1cc(C)c2c(=O)nc(SCc3ccccc3C)n(C3CC3)c2n1,108,108
COc1cccc(/C=C/c2nc(C#N)c(NC3CCCCC3)o2)c1,110,112
CCCN(CCC)C(=O)C1CCCN(c2ncnc3onc(-c4ccc(F)cc4)c23)C1 (stereo not given),105,103
COc1ccc(S(=O)(=O)c2cn(CC(=O)Nc3ccccc3)c3ccc(Cl)cc3c2=O)cc1,111,113
CN(Cc1ccccc1)C(=O)c1cc2c(=O)n(C)c3ccccc3c2s1,101,101
Cc1ccc(C)c(NC(=O)CSc2cn(CC(=O)N3CCCCC3)c3ccccc23)c1,113,107

# Reformatted: results already given
SMILES	Polio RdRp inh	Polio RdRp inh intensity
COc1ccc(-n2ncc(C(=O)N3CCOCC3)c2C2CCN(C(=O)OC(C)(C)C)CC2)cc1	102	105
CCCCOc1cccc(NC(=O)CSc2nnc(C)s2)c1	106	106
Cc1ccc(NC2=C(c3ccc(C(F)(F)F)cc3)C(=O)c3ccccc32)cc1C	81*	80*
Cc1ccc(C)c(Oc2nc3c(c(=O)n(C)c(=O)n3C)n2Cc2ccccc2)c1	112	116

# (listing goes on)
SMILES,Polio RdRp inh,Polio RdRp inh intensity
CCn1cc2nc(SCC(=O)Nc3ccc(C)cc3)n(Cc3ccc(C)cc3)c(=O)c2n1,109,111
COc1cccc(-n2c(=O)c3cc(OC)c(OC)cc3n(CC(=O)Nc3ccc(F)cc3)c2=O)c1,103,107
O=C(CN1C(=O)COc2ccc(S(=O)(=O)N3CCCCCC3)cc21)Nc1cccc(Cl)c1,116,122
CCOC(=O)c1c(C)oc2nc(C)nc(NCCCN3CCN(c4cccc(C)c4)C(C)C3)c12 (stereo not given),97,90
CCOC(=O)c1sc2ncn(CC(=O)Nc3ccc(C)cc3Br)c(=O)c2c1C,105,106
Cc1ccc(NC(=O)CSCn2nnc3c(=O)[nH]c(Cc4ccc(F)cc4)nc32)c(C)c1,105,97
Cc1ccccc1OCc1ccc(-c2nc(C#N)c(N3CCN(c4ccccc4)CC3)o2)o1,98,93
CSc1cccc(NC(=O)Cn2cnc(S(=O)(=O)N3CCCC3)c2)c1,111,108
CCOC(=O)c1cnc2c(ccc3ccccc32)c1Nc1ccc(C(C)=O)cc1,106,107
Cc1cc(C)cc(NC(=O)CSc2cc(C)[nH]c(=O)n2)c1,105,100
CCn1cc(C(=O)NCCOC)c(=O)c2cc(S(=O)(=O)N3CCOCC3)ccc21,105,103
Cc1ccc(CNC(=O)C2CCN(S(=O)(=O)c3c(C)noc3/C=C/c3c(C)cc(C)cc3C)CC2)cc1,108,113
COc1cc2c(cc1OC)C(c1ccc(Cl)cc1)N(c1cccc(C#N)c1)C(=O)C2 (stereo not given),107,107
CCOC(=O)c1ccc(NC(=O)CN2C(=O)c3cccnc3Oc3ccc(Cl)cc32)cc1,109,113
O=C(Nc1c(-c2ccc(F)cc2)nc2ccccn12)c1ccccc1F,107,102
Cc1ccc(C(=O)c2cn(Cc3ccccc3F)c3cc4c(cc3c2=O)OCO4)cc1,108,105
COc1ccccc1NC(=O)C(=O)c1cc(C)n(-c2ccccc2F)c1C,114,111
Cc1sc(-n2cccc2)c(C(C)NC(=O)Nc2cccc(C(F)(F)F)c2)c1C (stereo not given),115,116
COc1ccc(-c2nc(CSCC(=O)NCCc3ccc(OC)c(OC)c3)c(C)o2)cc1,102,103
Cc1csc2nc(COc3ccc(NC(=O)COc4ccccc4)cc3)cc(=O)n12,110,112
CCOC(=O)c1ccc(NC(=O)CCn2cnnn2)cc1,105,106
CCOc1ccc(-c2nnc(SCC(=O)c3ccc(F)cc3)n2-c2ccccc2)cc1,100,94
O=C(c1ccccc1Br)N(Cc1ccco1)C1CCS(=O)(=O)C1 (stereo not given),114,110
Cn1nnnc1SCCCNCc1ccccc1OCc1ccccc1F,104,109
COc1cc(OC)c(NC(=O)c2cn(C)c(=O)c3cc(OC)c(OC)cc23)cc1Cl,106,109
CCOc1ccc(NC(=O)CC2C(=O)OCCN2CC)cc1 (stereo not given),105,106
O=C(CSCc1cnn(-c2ccccc2)c1-n1cccc1)Nc1ccc(F)cc1F,107,113
CCOc1ccc(NC(=O)c2oc3ccccc3c2NC(=O)C(C)(C)C)cc1,107,109
COc1ccc(C2(Nc3cccc(C(=O)O)c3C)C(=O)c3ccccc3C2=O)cc1,109,112
CCOC(=O)c1c(C)n(-c2ccccc2)c2ccc(OC(=O)c3ccccc3)cc12,99,108
COc1ccc(-c2nc3ccccc3o2)cc1NC(=O)c1cccnc1,105,109
COc1cccc(C(=O)Nc2nc3ccc(S(=O)(=O)N4CCCC4)cc3s2)c1,111,114
CCOc1ccc(NC(=O)CCn2cnc3onc(-c4ccc(F)cc4)c3c2=O)cc1,114,109
CCOc1ccc(C(=O)c2cn(Cc3ccccc3)c3c(F)cc(F)cc3c2=O)cc1,103,103
CCOC(=O)c1c(C)n(-c2ccccc2)c2ccc(OC(=O)c3ccccc3NC(=O)C(C)C)cc12,104,106
CCOC(=O)c1c(S(=O)(=O)N2CCC(C(=O)Nc3ccc(C)c(Cl)c3)CC2)c(C)n(C)c1C,106,113
COc1ccc(CCNC(=O)Cc2c(C)c3cc4c(C)coc4cc3oc2=O)cc1OC,111,109
CC1CCCCN1C(=O)CCS(=O)(=O)c1cc2c(cc1Cl)NC(=O)CO2 (stereo not given),106,105
Cc1cccc(NC(=O)c2sc3cccc(Cl)c3c2Cl)c1,100,105
COCCCNC(=O)c1ccc(Cn2c(=O)c3ccccc3n(CC(=O)Nc3c(C)cccc3C)c2=O)cc1,103,104
CCOCCCNC(=O)c1[nH]c2cc(C)ccc2c1Sc1ccc(Cl)cc1,112,116
CC(C)(C)C(=O)NC1(C(F)(F)F)NC(=O)N(c2ccc(F)cc2)C1=O (stereo not given),106,106
COc1ccccc1NC(=O)C1=C(C)Nc2nc(SCc3ccccc3F)nn2C1c1ccncc1 (stereo not given),100,97
Cn1c(=O)cc(OCC(=O)N2CCN(c3ccccc3F)CC2)c2ccccc21,105,107
O=C(NCc1ccccc1)c1cccn1-c1nnc(N2CCCCC2)s1,100,101
COc1cc2[nH]c(=O)n(Cc3ccc(C(=O)NCc4ccc(C)cc4)cc3)c(=O)c2cc1OC,104,108
Cc1cccc(Cn2c(SCc3ccc(C(=O)NC4CCCC4)cc3)nc3cccnc32)c1,116,100
CC(C)NC(=O)c1ccc2c(c1)nc1n2CCCCC1,109,106
COC(=O)c1c(-c2ccc(Cl)cc2)noc1N1CCN(c2ccc(OC)cc2)CC1,108,112
CCN(CC)c1cc(C)c2cc(NC(=O)/C=C/c3ccccc3Cl)ccc2n1,108,111
COc1ccc(CCNC(=O)Cn2c(=O)n(-c3ccccc3)c(=O)c3c(C)c(C)sc32)cc1OC,106,109
Cc1cc(C)cc(Oc2nc3c(C)cccn3c(=O)c2/C=C(\C#N)c2nc3ccccc3s2)c1,100,138
CCc1ccc(S(=O)(=O)c2cn(CC)c3cc(N4CCOCC4)c(F)cc3c2=O)cc1,108,112
COc1cc(C)ccc1OCCSc1nc2ccc(NC(C)=O)cc2s1,104,109
CCCCN(CC)CCCNC(=O)c1cn(CC)c2ccc(S(=O)(=O)N3CCOCC3)cc2c1=O,104,105
COC(=O)CN1C(=O)CSc2ccc(S(=O)(=O)Nc3c(C)cc(C)cc3C)cc21,110,110
Cc1cccc(NC(=O)C2CCCN(S(=O)(=O)c3c(C)[nH]c(=O)[nH]c3=O)C2)c1C (stereo not given),102,96
CCOc1ccc(CNC(=O)C2CCN(S(=O)(=O)c3ccc4c(ccn4C)c3)CC2)cc1,112,116
CCc1ccc(NC(=O)CCS(=O)(=O)c2ccc3c(c2)oc(=O)n3C)cc1,103,103
COCC(C)NC(=O)c1cnn2c(C(F)F)cc(-c3ccccc3)nc12 (stereo not given),105,107

# Single values from the entries so far:
# For Polio RdRp inh, Cc1ccc(C)c(NC(=O)CSc2cn(CC(=O)N3CCCCC3)c3ccccc23)c1 is listed with 113
# For Polio RdRp inh intensity, CCOC(=O)c1ccc(NC(=O)CN2C(=O)c3cccnc3Oc3ccc(Cl)cc32)cc1 is listed with 113
# For Polio RdRp inh, COc1cccc(C(=O)Nc2nc3ccc(S(=O)(=O)N4CCCC4)cc3s2)c1 is listed with 111
# For Polio RdRp inh intensity, Cc1csc2nc(COc3ccc(NC(=O)COc4ccccc4)cc3)cc(=O)n12 is listed with 112
# For Polio RdRp inh intensity, COc1ccc(CCNC(=O)Cc2c(C)c3cc4c(C)coc4cc3oc2=O)cc1OC is listed with 109
# For Polio RdRp inh, O=C(CN1C(=O)COc2ccc(S(=O)(=O)N3CCCCCC3)cc21)Nc1cccc(Cl)c1 is listed with 116
# For Polio RdRp inh intensity, Cc1ccc(Nc2c(-c3ccccc3O)nc3cc(C)ccn23)cc1 is listed with 108

# Next section
SMILES,Polio RdRp inh,Polio RdRp inh intensity
CCc1cccc(C)c1Nc1c(-c2ccc(N3CCOCC3)cc2)nc2ncccn12,127,142
Cc1ccc(-c2nc3cccnc3s2)cc1NC(=O)Cc1ccccc1,101,97
COc1cc(Cl)c(C)cc1NC(=O)Cn1c2ncccc2c(=O)n1-c1ccccc1,105,115
CCOc1ccc(N(CC)S(=O)(=O)N2CCCC(C(=O)NCc3ccccc3OCC)C2)cc1 (stereo not given),113,109
CC(=O)Nc1ccc(OCc2cc(=O)n3ccccc3n2)cc1,94,125
CCC(C)NC(=O)c1ccc2c(c1)N(Cc1ccccc1)C(=O)c1ccccc1S2(=O)=O (stereo not given),107,111
COCCCNC(=O)CCc1c(C)nc2cc(-c3ccc(Cl)cc3)nn2c1C,107,106
Cc1cccc(-n2c(/C=C/c3cn(C)c4ccccc34)nc3ccccc3c2=O)c1,106,107
Cn1c(=O)c2c(-c3ccc(Cl)cc3)n(Cc3ccc(Cl)cc3)cc2n(C)c1=O,102,107
COc1ccc2cc(-c3nc4ccc(C(=O)O)cc4[nH]3)c(=O)oc2c1,101,109
CCOc1ccc(CCNC(=O)CSc2nnnn2-c2ccccc2)cc1OCC,105,105
CCOC(=O)c1c(NC(=O)c2ccc(F)cc2)sc2c1CCC(CC)C2 (stereo not given),103,107
CCc1ccc(NC(=O)CC2C(=O)N(c3cccc(C)c3)C(=O)N2Cc2cccc(OC)c2)cc1 (stereo not given),99,103
CCN(Cc1ccccc1)C(=O)CCNS(=O)(=O)c1ccc2c(c1)CC(C)N2C(C)=O (stereo not given),106,92
COc1ccc(-c2cn3c(n2)sc2cc(C(=O)Nc4ccc(C)c(Cl)c4)ccc23)cc1,110,114

# Two entries from above, reformatted.
Cc1ccc(-c2cn3c(n2)sc2cc(C(=O)NCCC4=CCCCC4)ccc23)cc1
  Polio RdRp inh: 101	Polio RdRp inh intensity: 105
CCc1c(C)nc2nncn2c1Nc1ccc(C)c(F)c1
  Polio RdRp inh: 106	Polio RdRp inh intensity: 102

# Screens as filed in PubChem.
